# Env fusion inh: inhibitors of HIV-1 Env-driven cell-cell fusion, primary screen, HeLa-JRFL effector, CEM21 target cells, luciferase. inhibition, % at 12.3 µM. 360,000 compounds, 1.1% hits;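 active = mean replicate inhibition score of at least 50 and every replicate individually at or above 50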;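 also: 0% = plate neutral controls and 100% = maraviroc near 300 nM; one replicate is shown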
# Rce1 inhib: yeast Rce1p protease inhibitors, primary screen, biochemical, fluorescence, cell-free homogeneous. CAAX prenyl protease 2 (Saccharomyces cerevisiae (strain ATCC 204508 / S288c)), Q03530. yeast membranes, quenched prenylated peptide cleavage fluorescence. calls only. 290,000 compounds, 0.27% hits. AID 2563, 2010;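 active = fall in fluorescence gain of 50% or more versus controls, with final raw signal at or below 3038400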;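 also: plate controls were neutral control wells for no effect and wells lacking membranes for full effect; tested at 10 µM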
# PABP FP inh: PABP poly(A) RNA binding inhibitors, primary screen, biochemical, fluorescence polarization, uHTS. Polyadenylate-binding protein 1 (Homo sapiens), P11940. inhibition, % at 35 µM. 290,000 compounds, 1% hits. AID 2014, 2009;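 active = 50% or more with normal probe brightness, or confirmed in later tests; about a fifth of its hits are not listed in these tables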;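 also: calls also rest on retests at 20 µM and on dose response follow-up; controls were probe without protein and protein plus probe with vehicle; some compounds called inactive have numbers as strong as hits; many hits fall short of the cut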
# Target sequence (P11940 whole entry, looked up): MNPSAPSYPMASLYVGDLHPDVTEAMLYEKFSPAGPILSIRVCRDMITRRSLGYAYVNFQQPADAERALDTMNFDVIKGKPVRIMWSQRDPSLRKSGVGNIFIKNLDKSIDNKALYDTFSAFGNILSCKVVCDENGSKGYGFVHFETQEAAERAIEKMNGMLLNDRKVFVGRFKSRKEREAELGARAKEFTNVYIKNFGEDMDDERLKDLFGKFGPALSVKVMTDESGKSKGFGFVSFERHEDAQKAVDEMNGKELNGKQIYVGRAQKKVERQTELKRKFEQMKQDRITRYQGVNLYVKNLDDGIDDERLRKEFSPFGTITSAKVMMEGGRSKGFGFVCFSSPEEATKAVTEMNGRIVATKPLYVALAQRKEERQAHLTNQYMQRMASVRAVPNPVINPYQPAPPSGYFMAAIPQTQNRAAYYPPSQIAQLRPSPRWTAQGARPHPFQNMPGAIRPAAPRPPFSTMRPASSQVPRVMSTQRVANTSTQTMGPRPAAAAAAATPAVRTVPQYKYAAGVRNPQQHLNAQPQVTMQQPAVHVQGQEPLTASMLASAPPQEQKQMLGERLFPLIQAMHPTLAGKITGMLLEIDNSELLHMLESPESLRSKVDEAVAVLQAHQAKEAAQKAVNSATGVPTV
# Yeast UUG start: modulators of yeast start codon fidelity, primary screen, whole organism, S. cerevisiae, single point, plate reader. activity score, % at 18.7 µM. 350,000 compounds, 0.13% hits. S. cerevisiae UUG-firefly luciferase reporter, luminescence/redox ratio;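 active = replicate mean at a twofold rise or more, about +100% in these data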;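 also: firefly luciferase made from a UUG start codon reports start codon fidelity; reporter light over untreated wells divided by growth signal over untreated wells; some hits fall short of that in this replicate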
# MT1-MMP act inh: blockers of MT1-MMP proenzyme processing, primary screen, HT1080 RFP-PRO-GFP cells, GFP/RFP fluorescence. 360,000 compounds, 0.061% hits. GFP/RFP ratio fluorescence, overnight; percent of plate control window, DMSO zero. GFP/RFP ratio change, % at 20 µM. Matrix metalloproteinase-14 (Homo sapiens), P50281;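 active = GFP/RFP ratio change of at least 30% with cell ATP level not reduced by more than half and red fluorescence within 50% of control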; also: strong numbers were not always called active
#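 Material: RFP-PRO-GFP reporter HT1080 cells. Dosing: single-point 20 µM compound, 1% DMSO. Controls: DMSO and RFP-L50D-GFP cell wells. Timing: cells overnight before dosing, compound overnight, 37 °C, 5% CO2. Measure: GFP/RFP fluorescence ratio.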
# CSC inhib: cancer stem cell viability inhibitors, primary screen, luminescence; cancer stem cell-like cells viability; inhibition, % at 7.5 µM; 300,000 compounds, 1.1% hits; AID 2717, 2010;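 active = mean at 75% or more and at least half the replicates too; tested in HMLE shEcad cells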;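 also: 0% = median of negative and 100% = median of positive control wells; the first replicate is given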
# eIF4H FP inh: human eIF4H binding inhibitors, primary screen, translation initiation inhibitor project, biochemical, uHTS, fluorescence polarization; 290,000 compounds, 0.94% hits; inhibition, % at 35 µM; Eukaryotic translation initiation factor 4H (Homo sapiens), Q15056; eIF4H fluorescence polarization binding assay;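 active = 50% or more with normal probe brightness, or confirmed in later tests; about a fifth of its hits are not listed in these tables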;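 also: calls also rest on retests at 20 µM and on dose response follow-up; 0% = protein and probe with vehicle and 100% = probe without protein; strong numbers were not always called active; many hits fall short of the cut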
# MT1-MMP act inh RFP: also measured in MT1-MMP act inh; calls as there; RFP signal change, %; measured here: RFP expression control read;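 0 = vehicle wells; hits needed this value within 50% of zero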
# * marks the source's active call; other numbers are inactive results; i = inactive; x = not tested or not shown; + = active, no number. The list is partial; the hit share may differ from the screen's.
SMILES,Env fusion inh,Rce1 inhib,PABP FP inh,Yeast UUG start,MT1-MMP act inh,MT1-MMP act inh RFP,CSC inhib,eIF4H FP inh
O=C(Nc1nc2ccccc2[nH]1)c1ccc(F)c(S(=O)(=O)N2CCOCC2)c1,-8,i,-3,x,12,-3,8,-5
COc1ccccc1NC(=S)NCCc1ccccc1,x,i,8,-36,7,0,21,-5
NNC(=S)Nc1cccc(-c2n[nH]c(=S)o2)c1,4,i,29,-19,11,-4,-14,30
COc1ccc2c(c1)c(C(=O)N/N=C/c1ccc(Br)cc1)c(C)n2C,-1,i,-2,-17,-8,-16,47,-5
CCOC(=O)c1ccc(NC(=O)Nc2c(C)nn(C)c2C)cc1,-39,i,11,-6,2,1,-8,0
Cc1cc(C)n(CC2CC(=O)N(c3ccccc3)C2=O)n1 (configuration not stated),-7,i,-9,x,-2,-2,-14,-2
CCc1ccc(NC(=O)COc2ccc3c(c2)OCO3)cc1,-39,i,-5,-9,4,-1,-4,-5
O=C(O)/C=C\c1cccc(-n2nnnc2SCc2ccccc2F)c1,0,i,-3,-7,17,1,-1,1
COc1c(C)cccc1C(=O)Nc1cc(-c2nn3c(C)nnc3s2)ccc1C,-8,i,x,-36,0,-1,-2,x
O=C(/C=C/c1cccc([N+](=O)[O-])c1)NCCSCc1cccc(Cl)c1,12,i,-11,-7,4,6,15,3
O=S(=O)(Nc1ccccc1N1CCCCC1)c1ccccc1,9,i,-10,-11,-3,-4,-5,-5
CCN1CCN(C(=O)Cn2ncc3ccsc3c2=O)CC1,-16,i,-2,-11,0,3,6,3
CCn1c(N2CCN(C(=O)/C=C/c3ccccc3)CC2)nc2ccccc21,21,x,0,x,2,1,4,-2
O=[N+]([O-])c1cc(/C=N/O)ccc1SCc1ccccc1,-350,i,-2,-20,3,-5,4,2
CC1CCN(S(=O)(=O)c2ccc(NC(=O)[C@@H]3CCCC[C@@H]3C(=O)O)cc2)CC1,0,i,-8,5,-2,-1,x,-1
Nc1ccc(S(N)(=O)=O)cc1N,3,i,9,1,0,5,-4,13
Cc1ccccc1OCCN1C(=O)NC2(CCCc3ccccc32)C1=O (configuration not stated),x,i,2,6,2,-5,-4,2
OC(c1ccc(F)cc1)c1nc(-c2ccoc2)cs1 (configuration not stated),2,x,x,-4,3,-2,x,x
CCCc1ccc(OCc2ccc(C(=O)Nc3cccc(C)n3)o2)c(OC)c1,11,i,-1,x,-1,1,24,4
N#Cc1ccccc1OCC(=O)NC(=O)NCc1ccco1,-26,i,18,x,2,1,11,46

# Rewritten with each value named: four of the compounds above
CCOC(=O)c1ccc(NC(=O)Nc2c(C)nn(C)c2C)cc1
  Env fusion inh: -39
  Rce1 inhib: i
  PABP FP inh: 11
  Yeast UUG start: -6
  MT1-MMP act inh: 2
  MT1-MMP act inh RFP: 1
  CSC inhib: -8
  eIF4H FP inh: 0
Cc1ccccc1OCCN1C(=O)NC2(CCCc3ccccc32)C1=O (configuration not stated)
  Env fusion inh: x
  Rce1 inhib: i
  PABP FP inh: 2
  Yeast UUG start: 6
  MT1-MMP act inh: 2
  MT1-MMP act inh RFP: -5
  CSC inhib: -4
  eIF4H FP inh: 2
O=C(O)/C=C\c1cccc(-n2nnnc2SCc2ccccc2F)c1
  Env fusion inh: 0
  Rce1 inhib: i
  PABP FP inh: -3
  Yeast UUG start: -7
  MT1-MMP act inh: 17
  MT1-MMP act inh RFP: 1
  CSC inhib: -1
  eIF4H FP inh: 1
O=C(Nc1nc2ccccc2[nH]1)c1ccc(F)c(S(=O)(=O)N2CCOCC2)c1
  Env fusion inh: -8
  Rce1 inhib: i
  PABP FP inh: -3
  Yeast UUG start: x
  MT1-MMP act inh: 12
  MT1-MMP act inh RFP: -3
  CSC inhib: 8
  eIF4H FP inh: -5

# (more compounds)
SMILES,Env fusion inh,Rce1 inhib,PABP FP inh,Yeast UUG start,MT1-MMP act inh,MT1-MMP act inh RFP,CSC inhib,eIF4H FP inh
Cc1ccc(NS(=O)(=O)c2ccc(F)cc2)nc1,-92,i,-8,3,0,2,-7,-8
Cc1ccc(COc2ccc(CNCCCN3CCCCCC3=O)cc2)cc1,30,i,-2,9,-1,-2,37,9
Cc1cc2nc3n(c2cc1C)CC1CC(C(=O)NCc2cccc(Br)c2)N(C)C31 (configuration not stated),1,i,x,-11,2,-1,12,x
CCSc1nnc(NC(=O)C2CCCN(S(=O)(=O)c3cnc[nH]3)C2)s1 (configuration not stated),-13,i,-15,-2,-1,7,-6,-5
CCC(=O)c1ccc(OCC(=O)OC(C)C(=O)N2CCc3ccccc32)cc1 (configuration not stated),9,i,x,x,7,2,-4,x
O=C(NCCc1ccc(F)cc1)C(=O)NCC1CCCN1S(=O)(=O)c1cccs1 (configuration not stated),14,i,x,x,-2,-3,11,x
CCNC(=S)NNC(=S)NCc1ccccc1,8,i,4,x,2,5,18,9
O=C(CCCN1C(=O)c2ccccc2C1=O)Nc1c2c(nc3c1CCC3)CCC2,-4,x,13,-10,-3,0,x,4
OC1CCN(C(c2ccc3ncccc3c2)c2nnnn2C2CCCCC2)CC1 (configuration not stated),x,+,-5,-19,-6,0,-9,2
C=Cn1cc[n+](CC(=O)c2ccc(C)cc2)c1,-22,i,6,x,4,6,-19,-1
Cc1c(C(=O)N/N=C/c2cccc(O)c2)nnn1-c1nonc1N,-12,i,4,-8,4,3,-8,-8
CN(C)C=NC(=O)/C(C#N)=C1\CCc2ccccc2N1,x,i,1,-24,-5,0,15,-3
COc1cc(C(C)=O)ccc1OCC(=O)Nc1cc(Cl)ccc1-n1cncn1,26,x,x,-11,3,0,x,x
C=CCOn1c(=O)c(-c2ccc(C)cc2)[n+]([O-])c2ccccc21,-7,i,-8,-7,-1,4,-6,-2
COc1ccc(NC(=O)COc2nc(N(C)C)nc(N(C)C)n2)cc1,-5,i,10,-16,15,6,9,-6
COCCCNC(=S)NNC(=O)c1ccc(S(=O)(=O)N2CCC(C)CC2)cc1,-12,i,-12,x,1,0,3,6
COc1ccccc1NC(=O)C(C)OC(=O)CCCN=C1NS(=O)(=O)c2ccccc21 (configuration not stated),9,i,x,-7,-26,-13,12,x
COCCSc1ccccc1C(=O)NCC1CCCO1 (configuration not stated),x,i,6,-20,7,7,-5,-8
O=C1CC[C@@H](CN(Cc2ccccc2)Cc2cn[nH]c2-c2cc3ccccc3o2)N1,5,i,0,1,-1,-1,10,0
Cc1noc(C)c1-c1ccc(C(=O)NCc2ccncc2)c2occc12,-8,x,x,-4,9,-16,x,x
CCC(C(=O)Nc1ccccc1C(=O)N1CCCC1)N1C(=O)c2ccccc2C1=O (configuration not stated),x,i,-6,-4,2,5,1,-6
Cc1ccc2nc(Nc3nc(CSc4nnnn4-c4ccccc4)cc(=O)[nH]3)nc(C)c2c1,-130,i,-2,-5,-1,2,x,-7
CCCNC(=O)c1nc(C)n(-c2cc(Cl)ccc2Cl)n1,-4,i,11,x,-2,1,-17,5
COc1cccc(/C=C/C(=O)OCC(=O)NC2CCCCCCC2)c1,0,x,x,-8,-1,0,-15,x
CCN(CC)C(=O)COc1ccc2oc(C)c(C(=O)OC(C)C)c2c1,29,i,3,10,2,-4,-11,2
O=C(O)CC1(CC(=O)Nc2ccc(F)cc2F)CCCCC1,12,i,-11,-13,-1,4,-12,-2
Cn1nc(C(F)(F)F)c(-c2cccc(C(F)(F)F)c2)c1NC(=O)c1nccnc1C(=O)O,3,i,4,-16,3,3,-4,4
Cc1cccc(NC(=O)C2c3ccccc3Oc3ccccc32)n1,1,i,-2,x,-21,-14,5,-1
CC(=O)c1nn(-c2cccc(Br)c2)cc1C(=O)c1cccc2ccccc12,-8,i,1,-21,-4,-5,6,8
COc1ccc([C@H]2[C@H](C(C)=O)N3N=Cc4ccccc4C3C23C(=O)OC(C)(C)OC3=O)cc1 (some centres not stated),x,i,0,-12,-3,6,x,5
CCc1cccc(C)c1NC(=O)CN1C(=O)NC(C)(CCC(C)C)C1=O (configuration not stated),4,x,x,-16,2,2,-14,x
CCOc1ccc2[nH]c(=O)c(CN(CCCO)S(=O)(=O)c3ccc(F)cc3)cc2c1,-5,i,2,9,4,-2,-1,-6
O=C(Cc1ccc([N+](=O)[O-])cc1)Nc1cccc(C(=O)N2CCCC2)c1,-13,x,x,-12,7,-9,-6,x
Cc1cc(OCC(=O)NNC(=O)c2cnccn2)cc(C)c1Cl,22,i,16,-7,0,1,x,6
COc1ccc(NC(=O)c2ccc3ncsc3c2)cc1,-70,i,9,-19,-3,2,x,-3
O=C(NC1CCS(=O)(=O)C1)c1cccc(Br)c1 (configuration not stated),x,i,x,-10,0,-7,-4,x
COc1ccc(NC(=O)CCSc2nc(C)cs2)cc1,-14,i,8,-7,-2,-1,14,-3
CCN(CC)S(=O)(=O)c1ccc(C(=O)Nc2nnc(C(C)C)s2)cc1,-13,i,-5,-16,6,-3,-5,3
COc1ccc(C(=O)Oc2c(OC)cc(C(=S)N3CCOCC3)cc2OC)cc1OC,1,i,10,-8,2,1,-30,-5
CC(=O)NS(=O)(=O)c1ccc(N=c2ssc3c2-c2cc(C)ccc2NC3(C)C)cc1,-21,i,-5,-8,7,-1,-13,2
Cc1ccc(OCC(=O)N2CCN(C(=O)CCC3CCCC3)CC2)cc1,x,i,-5,1,4,-2,-13,-2
O=C(O)Cn1cnc2scc(-c3cccs3)c2c1=O,5,i,-3,-12,5,5,-9,1
COc1ccc(CCC(=O)NCc2ccccc2OC)cc1,1,i,1,3,-3,0,-10,5
Cc1ccccc1-c1nc(-c2ccc(NC(=O)c3ccc4c(c3)OCO4)cc2)no1,38,i,-4,-12,6,-9,5,19
CNCCOc1ccccc1-c1ccccc1,-53,i,10,-5,-3,1,-8,12
C=C(C1=CCN(S(=O)(=O)C(C)(C)C)[C@@H]1CCO)c1ccccc1,-5,x,x,-6,-7,-6,x,x
O=C(Nc1cccc(-n2cnnn2)c1)c1ccoc1COc1ccc(Cl)cc1,-7,i,1,-12,7,-4,-9,-8
COc1cccc(CC(=O)NNC(=O)c2ccc3c(c2)OCO3)c1,1,i,-1,-21,0,2,-10,-4
Cn1c(=O)[nH]c(=O)c2c1nc(Sc1ccccc1)n2CCc1ccccc1,-12,i,5,-1,2,-3,-11,-7
COc1ccccc1NC(=O)C(=O)N/N=C(\C)CC(=O)Nc1ccccn1,-5,i,-5,-18,-2,2,-11,-2
CC(C)N(C)Cc1cn(C)nc1-c1ccc(Oc2ccccc2)cc1,5,i,6,-9,-1,-3,13,5
Cc1ccc(-c2nc(S(=O)(=O)c3ccc(C)cc3)c(N3CCOCC3)o2)cc1,15,i,8,-19,-3,-1,x,-3
CCOc1ccc(Br)cc1C(=O)N/N=C/c1ccccn1,8,i,-4,-9,2,1,3,-7
Cc1ccc(CNC(=O)C2CCCN(c3nc4ccccc4o3)C2)cc1 (configuration not stated),19,i,0,-15,-2,-1,4,-1
O=C(CCCOc1ccc(Cl)cc1Cl)Nc1cccnc1,x,i,16,11,23,-2,3,-10
Cc1ccc(C(=O)N(C)CC(=O)Nc2cccc(F)c2)cc1S(=O)(=O)N1CCCCC1,25,i,x,x,3,-7,x,x
CCOCCCNC(=O)c1c[nH]c2c(CC)cccc2c1=O,0,i,-2,x,4,5,x,-6
CN(c1ccccc1)S(=O)(=O)c1cccc(C(=O)NCC(=O)Nc2ccc(F)c(F)c2F)c1,7,x,x,-6,1,-2,-10,x
O=C(Nc1ccccc1F)C1CCN(C(=O)NC2CCCCC2)CC1,4,i,-8,-6,0,-2,x,-8
CCCNC(=O)c1onc(CSc2ccc(F)cc2)c1C(=O)NCCC,25,i,-6,-9,-8,-2,2,0

# Source: PubChem BioAssay
